Assay outcomes (PubChem BioAssay)
Arbovirus inh: antivirals against arbovirus infection; arbovirus infection cell-based antiviral screen; actives 0.37% (n = 200,000); inhibition, % at 10 µM;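 active = inhibition from about 30%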;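 also: bluetongue infection of BSR cells; cell survival read as ATP light after 72 h; 0% = infected wells without compound and 100% = uninfected wells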
RecA intein inh: Mtb RecA intein splicing inhibition. P9WHJ3. inhibition, %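 (about 9 µM by stock and volumes)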. cell-free RecA intein splicing, fluorescence. actives 0.75% (n = 290,000); in the data active = inhibition above about 30%; inconclusive = no clear call, values can overlap the other calls;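 also: 0% = vehicle wells and 100% = reference inhibitor control wells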
Target sequence (P9WHJ3 whole entry, looked up): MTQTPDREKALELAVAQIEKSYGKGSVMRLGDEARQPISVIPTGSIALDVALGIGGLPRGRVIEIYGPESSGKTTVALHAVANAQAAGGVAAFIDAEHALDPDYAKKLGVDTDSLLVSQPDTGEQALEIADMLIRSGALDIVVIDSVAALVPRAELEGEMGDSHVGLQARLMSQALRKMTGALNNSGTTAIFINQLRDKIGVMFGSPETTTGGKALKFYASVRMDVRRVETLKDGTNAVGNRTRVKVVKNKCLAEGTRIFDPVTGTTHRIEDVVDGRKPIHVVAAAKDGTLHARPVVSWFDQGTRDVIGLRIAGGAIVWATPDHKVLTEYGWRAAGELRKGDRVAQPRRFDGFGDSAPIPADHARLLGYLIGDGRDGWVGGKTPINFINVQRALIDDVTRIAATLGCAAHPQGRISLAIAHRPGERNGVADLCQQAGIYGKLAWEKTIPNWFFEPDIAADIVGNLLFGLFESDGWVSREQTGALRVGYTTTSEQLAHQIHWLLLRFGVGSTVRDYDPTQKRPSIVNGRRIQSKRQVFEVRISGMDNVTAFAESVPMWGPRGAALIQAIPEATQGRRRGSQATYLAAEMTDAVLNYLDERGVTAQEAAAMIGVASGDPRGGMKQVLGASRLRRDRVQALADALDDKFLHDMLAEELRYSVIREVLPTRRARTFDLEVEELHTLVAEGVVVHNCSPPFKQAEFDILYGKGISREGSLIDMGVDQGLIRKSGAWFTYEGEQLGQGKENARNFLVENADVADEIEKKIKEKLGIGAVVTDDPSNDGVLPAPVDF
Mtb bLac sens: beta-lactam sensitization of Mtb H37Rv; M. tuberculosis H37Rv growth with meropenem, percent inhibition; hits of this screen are not shown here; inhibition, % at 25 µM; actives 0.27% (n = 330,000);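 active = about 74% or more and at least 40 points above the plate without the antibiotic, then above 30% in a dose series; inconclusive = first-round hits that could not be retested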;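 also: growth measured after seven days incubation then overnight dye step; 0% = bacteria only wells and 100% = bacteria with antibiotic; twin plates without the antibiotic show which effects depend on it; some results filed as inactive read as strong as hits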
YopH inh: blocks Yersinia enterocolitica YopH tyrosine phosphatase. fluorescence Ex485/Em525. inhibition, %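 (about 10 µM by stock and volumes)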. actives 0.16% (n = 140,000). AID 898;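 active = inhibition of 50% or more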;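 also: controls were vehicle for no effect and minimum signal wells for full effect; inactives centre near -20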
Mtb growth: M. tuberculosis H37Rv growth inhibitors, H37Rv strain (AID 1626). M. tuberculosis H37Rv growth inhibition; higher % means a stronger effect. one-dose inhibition, % at 10 µM; IC50 in µM for titrated hits. actives 0.95% (n = 220,000);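 active = confirmed in a dose series; inconclusive = inhibition above 80% but not taken into the dose series; inactive = below 80% or under 30% at every dose of the series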;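 also: bacteria incubated seven days before Alamar blue readout; 0% = bacteria only wells and 100% = bacteria with antibiotic wells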
Arbovirus inh repeat: second read-out of Arbovirus inh, no call of its own (marks repeat the call); inhibition, %; measured here: 10K subset replicate screen; many hits read low in the repeat;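 first of two repeat runs on a subset; 0% = infected and 100% = uninfected wells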
Numbers without * were called inactive; u = inconclusive; x = not tested or not shown. These rows are one share of the data; count on the stated rates, not on these rows.

SMILES	Arbovirus inh	RecA intein inh	Mtb bLac sens	YopH inh	Mtb growth	others
CCOC(=O)N1CCC(NC(=O)C2CCN(S(=O)(=O)N3CCCC3)CC2)CC1	-1	x	1	-15	-5%
Cc1ccc(OCC(=O)NCCO)c(Br)c1	-1	1.1	-10	x	-2%
COc1ccc(C(=O)N2CCN(C(C)=O)CC2)cc1S(=O)(=O)NCc1ccc(Cl)cc1	-10	-1.4	-5	-51	-9%
Cc1cc(OCCCCCNCCO)cc(C)c1Cl	-23	2.2	47	-21	1%
O=C(Nc1ccc(Cl)cc1)OCc1cc(-c2ccccc2Cl)on1	-10	-0.5	-3	-10	x
Cc1ccc(C(=O)Cn2nc(C)c([N+](=O)[O-])c2C)c(C)c1	17	5.7	3	x	6%
Cc1cc(Cl)ccc1NC(=O)c1ccc2c(c1)OCO2	x	-4.0	0	x	x
COc1cc(OC)c(C(=O)COc2ncnc3ccccc23)c(OC)c1	-8	2.0	27	-46	-9%
COc1ccc(S(=O)(=O)NCCSCc2cccc(C)c2)cc1Br	-43	13	-8	-25	-8%
O=C(NCCc1cn2ccccc2n1)C1CCCCC1	-5	2.2	6	-14	2%
CCc1ccc2oc(=O)cc(CN(C)Cc3ccccc3)c2c1	16	-1.5	12	-18	16%
Cc1c(C(=O)N(C)CC(=O)Nc2cccc(F)c2)oc2c(Cl)cccc12	x	0.0	-7	x	x
COc1ccc(CCNc2ccc(S(=O)(=O)N3CCN(C)CC3)cc2[N+](=O)[O-])cc1	x	-1.9	-4	x	x
CCOC(=O)N1CCC(NC(=O)c2ccc(CS(=O)(=O)c3c(Cl)cccc3Cl)o2)CC1	8	1.2	-6	-10	-3%	Arbovirus inh repeat=1
CC(=O)c1ccc(N2CCN(S(=O)(=O)c3c(C(=O)N4CCCC4)c(C)n(C)c3C)CC2)cc1	x	-1.4	7	x	x
Cc1cc(C)nc(SCCn2c(N3CCCCC3)nc3c2c(=O)n(C)c(=O)n3C)n1	0	x	2	-13	-6%
Cc1cccc(N2CCN(Cc3nc(C4CC4)no3)CC2)n1	x	-0.3	-5	x	-5%
Cc1cc(=O)oc2c(C)c(OC(=O)c3ccco3)ccc12	x	-31	14	x	x
Cc1ccc([N+](=O)[O-])cc1NC(=S)NC(=O)C(C)(C)C	8	1.5	2	-37	-2%
Cc1cccc(CSCCNC(=O)c2ccc(N(C)S(=O)(=O)c3ccccc3)cc2)c1	3	8.7	-8	-28	-4%
CCOC(=O)C1CCN(C(=O)CCc2c(C)nc3c(-c4ccc(F)cc4)c(C)nn3c2C)CC1	-14	1.2	-2	-21	9%
Cc1ccc(-c2c[n+](CC(=O)Nc3ccccc3C)c3n2CCC3)cc1	x	-0.9	-4	x	5%
COc1ccccc1/C=C1\N=C(C(C)(C)C)OC1=O	x	2.5	-4	x	x
CCN(CC)C(=O)CSc1nc(O)cc(=O)n1C	0	0.1	-8	-9	-2%
O=[N+]([O-])c1ccc(Cl)c(CN2CCN(c3ncccn3)CC2)c1	x	-0.9	6	x	x

Continued, overlapping the part above by 2 compounds.
SMILES	Arbovirus inh	RecA intein inh	Mtb bLac sens	YopH inh	Mtb growth	others
CCN(CC)C(=O)CSc1nc(O)cc(=O)n1C	0	0.1	-8	-9	-2%
O=[N+]([O-])c1ccc(Cl)c(CN2CCN(c3ncccn3)CC2)c1	x	-0.9	6	x	x
Nc1cc(-c2nc3ncccc3o2)ccc1Cl	0	1.7	-10	-10	-3%
CN(C)C1(CNC(=O)c2cccc(S(=O)(=O)Nc3ccc(Br)cc3)c2)CCCCC1	x	1.4	7	x	x
CCOc1ccc(NS(=O)(=O)c2cc(C)c(C)cc2C)cc1	-16	7.9	-7	x	-1%
CCOc1ccccc1N(CC(=O)Nc1ccccc1C(=O)N1CCCC1)S(C)(=O)=O	x	0.1	-4	x	x
CCCCc1nc(SCC(=O)N2CCCCC2)c2c(=O)n(C)c(=O)n(C)c2n1	x	-1.2	4	x	x
Cc1nc2ccccc2n1S(=O)(=O)c1cc(C(=O)O)ccc1Cl	x	1.9	7	x	x
CS(=O)(=O)N1CCCC(C(=O)Nc2ccccc2Cl)C1 (centres undefined)	x	0.3	-2	x	x
COc1cc(NC(=O)C2CCN(S(=O)(=O)c3ccc(Cl)cc3)CC2)ccc1-n1cnnn1	-39	2.6	10	-38	2%
CC(=O)Oc1ccc(N(C(C)=O)S(=O)(=O)c2ccc3ccccc3c2)cc1	x	3.8	8	x	x
CCC1=Nc2cc(C(=O)NCc3ccco3)ccc2Sc2ccc(C)cc21	-6	12	0	-2	17%
C=CCn1c(SCC(=O)c2ccc(Cl)cc2)nnc1-c1ccc2c(c1)OCO2	-4	x	-2	-30	-1%
COc1ccc(C(=O)N/N=C/c2ccc(OC)c(CN3CCc4cc(OC)c(OC)cc4C3C)c2)cc1 (centres undefined)	-7	-2.9	-2	x	7%
CC(C)(C)NC(=O)Cn1c(SCC(=O)NC2CCCCC2)nc2ccccc21	0	0.3	-3	-4	0%
CC(C)CCc1c(O)nc(SCC(C)C)[nH]c1=O	2	-3.1	8	x	-1%
OCCNc1nc(SCc2ccccc2)nc2sc3c(c12)CCC3	-11	4.4	x	4	x
Cc1cc(N2CCOCC2)nc2ccc(NC(=S)N3CCN(Cc4ccccc4)CC3)cc12	-15	-3.4	71	x	-2%
O=C(CNC(=O)C1CCCCC1)NCc1ccco1	x	0.9	-1	x	x
COC(=O)Cc1ccc(NC(=S)N2CCN(c3ccc(F)cc3)CC2)cc1	17	0.0	-3	-12	75%
CC(=O)Oc1ccc(N(c2ccccc2)S(=O)(=O)c2ccc(C)cc2)cc1	7	3.6	-6	x	-5%
CNC(=S)N(Cc1ccc(OC)cc1)Cc1cc2cccc(C)c2[nH]c1=O	-6	8.8	-10	x	1%
CCn1c(CNc2ccccc2Cl)nnc1SCC(=O)NCc1ccccc1	-7	-1.1	5	-42	-4%
COc1ccccc1C1Nc2cccc3cccc(c23)N1	-6	-3.3	6	2	-4%
COC(=O)c1cc(S(=O)(=O)N2CCOCC2)ccc1Sc1ccccc1N	-7	-5.7	-4	-7	1%
CCC(=O)OCc1cc(=O)oc2ccc3ccccc3c12	x	-4.7	9	x	x
Cc1ccc(C(=O)NC(c2ccccc2)C(Cl)Cl)cc1 (centres undefined)	3	0.5	1	-35	3%
More compounds follow:
SMILES	Arbovirus inh	RecA intein inh	Mtb bLac sens	YopH inh	Mtb growth	others
CC(/C=N/Nc1nc(C)cc(=O)[nH]1)=C\c1ccccc1	24	-0.3	3	x	-5%
Cc1ccccc1C(=O)N1CCN(c2ccc(N3CCOCC3)nn2)CC1	x	-10	-9	x	x
CCOC(=O)c1c(-c2ccccc2)oc2ccc(OCC(O)CN(C)C)cc12 (centres undefined)	x	1.3	36	x	x
Cc1nc(N)sc1N=Nc1c(C)n(C)n(-c2ccccc2)c1=O	x	-2.8	1	x	-10%
CC(C)c1ccc2[nH]c3nc(SCC(=O)NC4CC4)nnc3c2c1	x	-1.9	1	x	x
S=C(NCCCc1ccccc1)Nc1ccc(Br)cc1	x	12	89	x	x
CCOc1ccc(NC(=O)CSc2nnc(Cc3cccn3C)n2-c2ccc(F)cc2)cc1	7	2.4	-4	-24	-6%	Arbovirus inh repeat=-2
O=c1[nH]c(SCCOc2ccccc2)nc2ccccc12	1	3.4	3	-36	-2%
CC(C#CCN1CCCCC1)OCCOCc1ccccc1 (centres undefined)	-3	-2.6	-3	-15	-6%
NCCCn1c(C(=O)c2cc(Cl)c(N)c(Cl)c2)c2ccccc2[n+]1[O-]	x	1.7	-2	x	x
Cc1cccc(OCC(=O)OC(C)C(=O)Nc2ccc(Cl)cn2)c1 (centres undefined)	x	-0.8	15	x	x
CS(=O)(=O)N1CCN(c2ccccc2NC(=O)c2cccs2)CC1	9	0.1	-4	-15	-2%
COc1ccc(-c2cc(N3CCCC3)n3ncnc3n2)cc1	-5	3.2	-3	13	-10%
Cc1ccc(Sc2cnn(-c3ccccc3)c(=O)c2Cl)cc1	17	1.4	12	-28	3%
CC(=O)CCC(=O)N1CCC(n2nccc2NC(=O)c2ccccc2C)CC1	x	-1.2	-2	x	x
CCn1c(=Nc2ccc(N3CCOCC3)cc2)ccc2ccccc21	-7	-0.6	-7	-16	0%
COc1cc(/C=N/NC(=O)c2cc(-c3ccc4c(c3)OCO4)n[nH]2)ccc1O	-9	-0.1	-4	-18	-5%
COc1ccc(Cl)cc1NC(=S)NCCO	1	-3.9	0	x	1%
OCC1(Cc2ccc(Cl)cc2)CCN(Cc2ccc3nsnc3c2)CC1	-13	3.3	-1	x	0%
CCCCOc1ccc(C(=O)NCC(=O)NCC(c2ccc(F)cc2)N2CCOCC2)cc1 (centres undefined)	x	-0.8	3	x	x
CCC(C)(C(=O)NC1CCCC1)N(C(=O)c1ccccn1)c1ccccc1 (centres undefined)	-4	-2.6	u	-42	-1%
Cc1ccc(CSC2=Nc3ccccc3C3=NC(=O)CN23)cc1	3	2.1	8	x	17%
CCOC(=O)N1N=C(c2ccc(OC)cc2)CC1(O)C(F)(F)F (centres undefined)	-6	-1.2	8	x	-2%
CCOc1ccc(OCC)c(Nc2cc(C)nc3ncnn23)c1	-3	2.2	-5	-2	-4%	Arbovirus inh repeat=-8
Cc1cc(N2CCCC2)ccc1/C=C1\NC(=S)N(C)C1=O	4	x	9	x	7%
New compounds follow.
SMILES	Arbovirus inh	RecA intein inh	Mtb bLac sens	YopH inh	Mtb growth	others
CCOc1cc2[nH]c(=S)n(CC3CCCN3CC)c(=O)c2cc1OCC (centres undefined)	2	-1.3	-1	-11	-1%
O=C(NCc1ccccc1Cl)C(=O)NCC1OCCN1S(=O)(=O)c1ccc(F)cc1 (centres undefined)	x	1.9	-8	x	x
O=C(CSC1=NCCS1)Nc1nc(-c2ccccc2)cs1	-7	37*	94	-56	x
COc1ccc(CCNC(=O)c2ccc(CN3CCC(Cc4ccccc4)CC3)cc2)cc1OC	3	2.0	62	-28	20%
CC(C)NS(=O)(=O)c1ccc(NC(=O)Cc2cccs2)cc1	7	0.6	-2	-11	2%
CCOc1cc(/C=C(/C#N)c2ccc(Cl)cc2)cc(Cl)c1OCC(=O)O	52*	x	x	x	-1%
Cn1c(=O)c2c(nc(CN3CCN(C(c4ccccc4)c4ccccc4)CC3)n2CCCO)n(C)c1=O	x	1.7	-1	x	x
NC(=O)Nc1n[nH]c(-c2ccccc2)n1	x	0.0	7	x	-18%
N#C/C(=C/c1ccc(N2CCOCC2)o1)C(=O)NC1CCCCC1	-5	-13	98	x	69%
CSCC[C@H](NC(=O)c1cccs1)c1nnc2ccccn12	x	8.2	u	x	x
CCN(CC)CCN(CC(=O)N(C1CCCCC1)C1CCCCC1)C(=O)c1cccnc1	4	-2.1	2	x	-1%
Cc1ccc(-c2ccc(/C=C3/NC(=O)NC3=O)o2)cc1[N+](=O)[O-]	-32	5.5	x	10	63%
O=C(Nc1cccc(Cl)c1)Nc1cccc(C(=O)O)c1	x	1.2	46	x	-10%
Cc1ccc(Nc2c3c(nc4ncnn24)CCC3)cc1	-2	-0.9	-2	-24	0%
O=C(O)c1ccc(CNC(=O)c2ccc3c(c2)C(=O)N(Cc2cccnc2)C3=O)cc1	x	-2.1	2	x	x
COc1n[nH]c2nncnc12	4	1.5	-10	-28	0%
O=C(NC1CCCCC1)[C@@H]1CC=C[C@@H]2CCN(Cc3ccccc3)C(=O)[C@@H]21	x	0.0	-4	x	1%
CN(c1ccccc1C(=O)Nc1cccc(Br)c1)S(=O)(=O)c1ccccc1	x	6.2	8	x	x
Cc1cc(C)c(C#N)c(Sc2ccc(N)cc2)n1	-12	-11	5	-25	4%
CCCC(C(=O)NC(C)(C)C)N(CCN1CCOCC1)C(=O)CNS(=O)(=O)c1ccccc1 (centres undefined)	x	-0.5	1	x	x
O=C(c1ccc(S(=O)(=O)c2ccccc2Cl)c([N+](=O)[O-])c1)N1CCN(Cc2ccccc2)CC1	-20	17	5	-14	9%
O=C(NCc1ccc(Cl)cc1)c1nccnc1CO	x	-13	0	x	x
COc1ccc(S(=O)(=O)Nc2nc(C(F)(F)F)cs2)cc1	12	-0.5	-10	-10	-6%
CCCC(=O)c1c(C)c2ccccc2n1C	-1	0.8	30	-35	-14%
CN1CCN(C(=O)c2cc(-c3ccccc3)on2)CC1	-1	3.4	4	-11	-1%

Compounds from the list above containing bromine (5):
SMILES	Arbovirus inh	RecA intein inh	Mtb bLac sens	YopH inh	Mtb growth	others
Cc1ccc(OCC(=O)NCCO)c(Br)c1	-1	1.1	-10	x	-2%
COc1ccc(S(=O)(=O)NCCSCc2cccc(C)c2)cc1Br	-43	13	-8	-25	-8%
CN(C)C1(CNC(=O)c2cccc(S(=O)(=O)Nc3ccc(Br)cc3)c2)CCCCC1	x	1.4	7	x	x
S=C(NCCCc1ccccc1)Nc1ccc(Br)cc1	x	12	89	x	x
CN(c1ccccc1C(=O)Nc1cccc(Br)c1)S(=O)(=O)c1ccccc1	x	6.2	8	x	x
